Assay outcomes: PubChem, ICCB-Longwood Screening Facility, Harvard Medical School
LANA-nucl inh: LANA-nucleosome interaction inhibition; FITC-LANA1-23 / chicken nucleosome fluorescence polarization; hits give low values; z-score (test concentration not listed); actives 0.3% (n = 51,000); AID 720717;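 active = both repeat wells score below -2 in polarization z-score versus plate sample wells, excluding overly bright wells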;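 note: 100 nL library stock added to about 30 µL; numbers are from one replicate; some results filed as inactive read as strong as hits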
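Assay system: FITC-LANA peptide and chicken nucleosomes; input: 240 nM purified chicken nucleosomes (480 nM peptide binding sites), final; also added: 50 nM FITC-LANA1-23 probe; medium: TEN-BT buffer, pH 7.5; doses: pin-transferred compound, 100 nL; times: 10–45 min, room temperature; technique: fluorescence polarization; replication: duplicates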
Ab BasE inh: blocks the Acinetobacter baumannii siderophore enzyme BasE; purified BasE, fluorescence polarization binding displacement; inhibition, % (concentration not given with the values); actives 0.1% (n = 84,000); AID 485350;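 active = both replicates above 25% with normal brightness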;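 note: 0% = negative plate control signal and 100% = positive plate control signal; stock transfer was 100 nL into about 30 µL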
Active calls of the source: *; / = not tested or not shown. A portion of the library (hit frequency here may not be typical).

compound,LANA-nucl inh,Ab BasE inh
O=S(=O)(c1ccc2c(c1)OCCCO2)N1CCN(Cc2ncc(-c3ccccc3)o2)CC1,/,1.1
O=S(=O)(NCC1CCCO1)c1cccc(C(F)(F)F)c1 (stereo not given),/,0.4
O=C(N/N=C/c1ccc2c(c1)OCO2)c1ccccc1,0.56,-1.5
C=CCN(CC=C)C(=O)C(C)Oc1ccc(Cl)cc1Cl (stereo not given),-1.31,0.3
COc1cc(OC)c(NS(=O)(=O)c2ccc(C)c(C(=O)Nc3nn[nH]n3)c2)cc1Cl,/,1.4
CCCn1c(=O)c2ccccc2n2c(SCC(=O)Nc3c(C)cc(C)cc3Cl)nnc12,/,1.3
NS(=O)(=O)c1cc2c(cc1Cl)NC(CC1CCCC1)NS2(=O)=O (stereo not given),-0.427,-6.3
CC(=O)c1ccc2c(c1)N(CCCN1CCC(CCO)CC1)c1ccccc1S2,1.05,-5.5
CN(C(=O)COC(=O)c1cccc(N2C(=O)c3ccccc3C2=O)c1)C1CCS(=O)(=O)C1 (stereo not given),/,2.1
N/C(=N/O)c1cnc2n(c1=O)CCS2,/,0.7
Cc1ccc(N2CCN(c3ccc(C)cc3)C2c2cccs2)cc1,/,1.9
CCOc1ccccc1NC(=O)CSc1nncn1C(C)C,/,0.5
COC(=O)c1cc(S(=O)(=O)NCCCN2CCN(c3ccccc3)CC2)c[nH]1,-0.164,-0.4
COc1nc(N)c(C#N)c(-c2ccc(C)cc2)c1C#N,0.402,-0.1
Cc1ccc2c(c1)c1c3n2CCN(CCC(=O)O)C3CCC1 (stereo not given),-0.286,2.3
O=C(CSc1nnc(-c2ccco2)n1C1CCCCC1)N1CCNC1=O,/,-1.2
Nc1ccc(N2CCCCC2)c(C(F)(F)F)c1,0.198,0.9
O=C(CC1=NS(=O)(=O)c2ccccc2N1)Nc1ccccc1,0.867,-1.6
Cc1ccc(NC(=O)c2oc3ccccc3c2NC(=O)C2CC2)cc1C,-0.155,-1.7
CC(C)CCn1c(=O)c2cccnc2n(CC(N)=O)c1=O,-1.36,-1.0
Nc1ccc(-n2nncc2C23CC4CC(CC(C4)C2)C3)cc1,/,0.6
CCOC(=O)CCN1C(=O)CN(C)CC1=O,/,2.9
O=C(NCc1cc(F)cc2c1OCOC2)c1cnc2ccccc2n1,/,2.7
CSc1c(C#N)c(-c2ccc(Cl)cc2)nn1C,/,-5.1
Cc1cc(Cl)ccc1OCC(=O)OCC(=O)N1CCC(C(N)=O)CC1,/,1.5

4 entries from above, set out differently:
O=S(=O)(NCC1CCCO1)c1cccc(C(F)(F)F)c1 (stereo not given)
  LANA-nucl inh: /
  Ab BasE inh: 0.4

O=C(N/N=C/c1ccc2c(c1)OCO2)c1ccccc1
  LANA-nucl inh: 0.56
  Ab BasE inh: -1.5

C=CCN(CC=C)C(=O)C(C)Oc1ccc(Cl)cc1Cl (stereo not given)
  LANA-nucl inh: -1.31
  Ab BasE inh: 0.3

COc1cc(OC)c(NS(=O)(=O)c2ccc(C)c(C(=O)Nc3nn[nH]n3)c2)cc1Cl
  LANA-nucl inh: /
  Ab BasE inh: 1.4

(list continues)
compound,LANA-nucl inh,Ab BasE inh
COc1ccc(-c2nnc(SCc3cc(=O)n4cc(Br)ccc4n3)n2N)cc1OC,/,-3.0
CC(=O)N1CCC(n2nc(-c3ccccc3)oc2=O)CC1,1.68,-4.6
CCOC(=O)c1c(C)noc1-c1ccc(Br)o1,0.32,4.1
CN1CCN(S(=O)(=O)c2ccc(NC(=O)COc3ccccc3Cl)cc2)CC1,3.13,-3.0
Oc1ccc(-c2cccc(-c3ccc(O)cc3)c2)cc1,-0.683,3.3
O=c1c2cn[nH]c2[nH]c(=S)n1-c1cccc(C(F)(F)F)c1,-0.417,1.3
Cc1ccccc1Nc1nc(N)nc(COC(=O)C2CCN(C(=O)c3ccc(F)cc3)CC2)n1,/,-0.2
Cc1csc2c(SCC(O)C(F)(F)F)ncnc12 (stereo not given),/,-0.1
CCCc1nnc(SCC(=O)N2c3ccccc3Sc3ccccc32)o1,0.018,0.1
COc1ccc(N(Cc2cccs2)C(=O)CSc2n[nH]c(-c3cccs3)n2)cc1,/,1.3
NS(=O)(=O)c1ccc(CCn2c(-c3ccccc3)nc(=S)c3c2CCCC3)cc1,/,3.0
O=C(COC(=O)C1c2ccccc2Oc2ccccc21)NCc1ccco1,/,1.4
CC(C)CNCC(=O)Nc1ccc(S(N)(=O)=O)cc1,/,0.7
COc1ccc(C(=O)CSc2nc(C)cc(C)n2)cc1C,-0.629,-2.4
CN(C)/C=C(\Sc1nnc(N)s1)C(=O)Nc1ccc(F)c(F)c1F,/,0.7
CCn1cc(C(=O)OCC(=O)N2CCN(S(=O)(=O)c3ccc(Cl)cc3)CC2)c(=O)c2ccc(C)nc21,/,1.4
CC(/C(O)=C(\C#N)c1nc2ccccc2n1C)N1C(=O)c2ccccc2C1=O (stereo not given),/,1.2
O=C(c1cnn(C(=O)COc2ccccc2F)c1)c1cc(F)ccc1O,/,0.6
Cc1ccc(N2C(=O)CC(C3=C(N4CCOCC4)CCCC3)C2=O)cc1 (stereo not given),0.36,-2.5
Cc1ccc(-n2cnc3cc(N=Cc4ccc(N(C)C)cc4)ccc32)cc1,/,-0.9
COc1cccc(CNc2ccc3c(c2)ncn3C)c1,2.7,-1.8
O=S(=O)(NCCc1c[nH]c2ccccc12)c1ccc(Cl)c(Cl)c1,/,-0.2
Cc1ccc(C)n1-c1cc(Cl)ccc1C(=O)O,-0.209,84.9*
O=C1c2ccccc2C(=O)N1CCSc1nnc(-c2ccco2)n1Cc1ccccc1,/,-0.8
Cc1sc2nc(COC(=O)C(NC(=O)c3ccco3)C(C)C)[nH]c(=O)c2c1C (stereo not given),/,-8.3
CS(=O)(=O)n1nc(OC(=O)c2cc(Br)ccc2Cl)cc1N,-0.993,0.3
O=C(Cc1ncc(C(F)(F)F)cc1Cl)NCc1ccco1,0.054,/
CN1C(=O)C(C)(C)c2cc(S(=O)(=O)NC3CCCCCC3)ccc21,-0.63,2.0
C=CCOC(=O)c1c2nc3ccccc3nc2n2c1[nH]c(=O)c1ccc(C(=O)OC)cc12,-1.41,0.5
CN(C)S(=O)(=O)c1ccc(=O)n(Cc2ccc(-n3ccnc3)cc2)c1,/,1.8
COc1ccc(-c2nc(=O)c3ccccc3o2)cc1,/,2.4
CCn1c(=N)c(C(=O)NCc2ccccc2)cc2c(=O)n3ccccc3nc21,0.798,-1.3
CCc1nc2ccc(C(=O)NCc3cn[nH]c3C)cc2nc1CC,-0.968,-0.3
CC(C)c1ccc2c(c1)c(SC(C)(C)C)c(CC(C)(C)C(=O)O)n2Cc1ccc(Cl)cc1,-0.502,/
NCCCc1cn[nH]c1,0.104,5.3
CC(C)n1nnnc1SCC(=O)NC(=O)NC1CCS(=O)(=O)C1 (stereo not given),/,1.2
COc1ccc([C@H]2[C@@H](C(=O)O)c3ccccc3C(=O)N2Cc2ccc3c(c2)OCO3)cc1,/,2.0
O=C1CCN(C(=O)c2cccc(CN3C(=O)c4ccccc4C3=O)c2)CC1,/,1.4
Nc1ncnc2c1ncn2C1OC(C(=O)O)C(O)C1O (stereo not given),-0.691,1.1
Cc1cc2ccccc2nc1-c1ccc(F)cc1,-0.804,/
CC1=NN(CCc2nc(-c3ccc(Cl)cc3)cs2)C(=O)C1,/,-0.2
CNS(=O)(=O)c1ccc(NC(=O)c2ccccc2C(=O)O)cc1 (tested in a mixture with another compound),-0.315,/
Cn1cnnc1SCC(=O)N(c1ccccc1)c1ccccc1,0.509,-1.2
O=C1c2ccccc2-c2nc3nonc3nc21,0.746,-0.1
O=C(N(c1ccccc1)c1ccccc1)n1cncn1,0.705,1.7
O=C1CCCN1C(=O)CN1CCCCC1,-0.173,1.4
COC(=O)c1sc2ccccc2c1S(=O)(=O)NCc1ccco1,-0.794,2.8
NC(=O)CS(=O)(=O)c1nc2ccccc2n1Cc1ccccn1,-0.278,0.2
COC1(NC(=O)c2ccc(C)cc2)C(C)=CC(=O)C=C1C,1.13,0.1
N/C(CS(=O)(=O)Cc1ccc(F)cc1)=N\O,/,25.4

The results go on:
compound,LANA-nucl inh,Ab BasE inh
COc1ccc(N=C2SCC(=O)N2CCc2ccc(OC)c(OC)c2)cc1,/,2.0
O=C1CCCC(O)=C1N=Nc1ccc(Cl)c(Cl)c1,/,-1.4
COc1cc(C(=O)O)cc(Br)c1OC,-0.768,0.5
COc1ccc2c(c1OC)C(=O)O[C@@H]2[C@H]1c2c(cc3c(c2OC)OCO3)CCN1C,0.345,1.0
CC1CCN(Cc2c(F)cccc2F)CC1,-0.988,-0.9
COc1ccc(CC(=O)N(C)c2ccccc2)cc1,0.201,-2.4
CCC(=O)OCc1cc(F)cc2c1OC(c1ccccc1)OC2 (stereo not given),/,1.0
CC1CCCCC1NC(=O)/C(C#N)=C/c1ccc2c(c1)OCCO2 (stereo not given),/,3.3
CC(C)N1C(=O)N(c2ccccc2)C(=O)C1CC(=O)Nc1ccccc1 (stereo not given),-0.435,1.1
COC(=O)C1(C(F)(F)F)N=C(N2CCCCC2)OC(N2CCCCC2)=N1,1.8,-2.1
CCn1nc(C)c(CCNC(=O)c2ccc(NC(=O)C3=CSCCO3)cc2)c1C,-0.0535,1.4
COc1ccc(C(=O)NC(C)c2nnc(SCC(=O)Nc3nc(C)c(C)s3)n2C)cc1 (stereo not given),1.21,-1.5
CNCC(=O)Nc1ccc(OC)cc1,/,0.1
CC(C(=O)Nc1ccon1)N1C(=O)c2ccccc2S1(=O)=O (stereo not given),0.18,1.1
CCOc1ccc(S(=O)(=O)N(C)CC(=O)N2CCOCC2)cc1,2.31,-0.9
CC(C)(C)c1ccc(OCC(=O)Nc2cccc3nsnc23)cc1,/,0.8
CCOC(=O)CC1C(=O)NCCN1Cc1ccco1 (stereo not given),2.07,0.3
CSc1ncccc1C(=O)OCC(=O)Nc1ccc(N2CCOCC2)cc1,/,-0.3
Cn1c(=O)cc(SCC(=O)NCCCN2CCOCC2)c2ccccc21,-0.551,2.7
Cc1nc2n(CCN3CCOCC3)c3ccccc3n2n1,/,-0.4
Cn1cc(C(=O)c2ccccc2O)cc1-c1nc2ccccc2s1,/,-2.5
Nc1ncnc2c1ncn2[C@@H]1O[C@H](CO)C[C@@H]1O,0.336,/
Cc1ccc(-c2cc3c4c(C)n(C)c(C)c4c(C)nn3c2)o1,-0.673,0.8
O=C(NC1CC1)c1cc2ccccc2o1,0.102,1.6
CC(O)Cc1nsc(NC(=O)c2cccs2)n1 (stereo not given),-0.406,-0.6

Compound profiles, from the list above. Values in the order: LANA-nucl inh | Ab BasE inh
Record of CC1CCCCC1NC(=O)/C(C#N)=C/c1ccc2c(c1)OCCO2 (stereo not given) = / | 3.3
Record of Nc1ncnc2c1ncn2[C@@H]1O[C@H](CO)C[C@@H]1O = 0.336 | /

Additional structures follow.
compound,LANA-nucl inh,Ab BasE inh
NC(=O)COC(=O)c1ccc(S(=O)(=O)N2CCCC2)cc1,/,2.0
O=c1c2oc3cccc4c3n(c=2c(=O)c2ccccc12)CCC4,0.495,-1.4
COc1ccc(C(=O)CN2CCN(S(=O)(=O)c3ccc(C(C)C)cc3)CC2)cc1OC,2.12,-2.6
CCOC(=O)CN1CC23C=CC(O2)C(C(=O)NCc2ccccc2OC)C3C1=O (stereo not given),0.742,1.7
Cc1cccn2c(=O)c(/C=N/NCCC#N)c(Sc3nc4ccccc4s3)nc12,/,4.5
CSc1ccccc1C(=O)NCc1n[nH]c(=O)c2ccccc12,-0.477,-0.6
O=C(CSc1nnc(C2CCCCC2)o1)c1ccc[nH]1,/,1.8
Cn1nnnc1SCC1=C(C(=O)O)N2C(=O)C(NC(=O)C(O)c3ccccc3)C2SC1 (stereo not given),-0.342,/
O=C(Cc1ccccc1)Nc1nc2nc(-c3ccccc3)cc(=O)n2[nH]1,-0.203,0.7
O=c1/c(=C/c2ccc(O)c(Cl)c2)sc2nc3ccccc3n12,2.9,-4.8
CS(=O)(=O)Cc1nc2ccccc2[nH]1,/,0.3
Nc1nc(SCC(=O)C23CC4CC(CC(C4)C2)C3)nc(-c2ccncc2)n1,/,-2.0
O=C(Nc1ccccc1)OC1CCS(=O)(=O)C1 (stereo not given),0.011,0.4
COc1ccc(/C=[N+](\C)[O-])cc1OC,/,0.0
Nc1nc(=S)nc(C2CCC2)[nH]1,/,2.5
COc1ccc(CC(=O)OCC(=O)N2CCCC(C)C2)cc1 (stereo not given),/,2.5
CN1C(=O)/C(=C\c2ccc(C(=O)NCc3ccco3)cc2)SC1=S,0.468,1.0
Cc1cc(C(=O)CSc2nc(N)c(C#N)cc2C#N)c(C)n1Cc1ccc(F)cc1,/,-1.3
